High-throughput results as filed in PubChem.
ClpP mod: qHTS Assay for Activators of ClpP; ATP-dependent Clp protease proteolytic subunit (Bacillus subtilis (strain 168)), P80244; purified B. subtilis ClpP, FRET peptide cleavage, 20 min; Potency, µM (highest dose often 57.5 µM), for the others: top-dose activity change, negative = active; 1.9% of 340,000 active; active = well fitted falling curve with a large enough effect; inconclusive = small, poorly fitted or top-dose-only effect; inactive = no such curve, though single readings can be large or run the other way; further: potency means the concentration at half of the fitted maximal effect; the source files actives as falling curves though it sought activators and does not explain the sign; nearly all actives have a fitted effect of over 65% in size; many hits overshoot -100%
Target sequence (P80244 whole entry, looked up): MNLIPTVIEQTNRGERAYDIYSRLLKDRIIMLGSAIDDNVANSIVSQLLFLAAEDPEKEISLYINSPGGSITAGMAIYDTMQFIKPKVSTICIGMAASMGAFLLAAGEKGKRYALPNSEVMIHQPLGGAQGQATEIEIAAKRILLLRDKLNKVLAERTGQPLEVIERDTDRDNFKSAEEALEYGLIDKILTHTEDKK
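ClpP 10 microg/mL final, pH 8 Tris/KCl buffer with BSA, glycerol, Tween-20; compound pinned in; FRET-FV substrate; RT 20 min; Ex320/Em430; ΔFRET vs ADEP 5.8 microM, DMSO, no enzyme.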
CtBP-E1A blk: qHTS Assay for Inhibitors of the CtBP/E1A Interaction; CtBP / adenovirus E1A interaction (AlphaScreen); AlphaScreen GST-E1A/His-CtBP binding, 1536-well; hits give low values; control for the full effect not named in the record; activity change, % (concentration not given with the values); 0.49% of 340,000 active; in the data active means activity change below about -65%; inconclusive means about -30% to -65%; inactive means above about -30%; further: on the % scale 0 is the no-effect control and ±100 the full control effect
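Steps: dispense buffer (Tris pH 8.0, NaCl 300 mM, TCEP 1 mM, BSA, Tween 20); add 5X protein mix (GST-E1A, His-CtBP, 125 nM each); pin 23 nL compound; 2 h at 37 °C, dark; add 5X beads (50 ug/mL); 1 h; read.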
An asterisk follows results filed as active; ? = inconclusive.

The line under a structure holds: ClpP mod	CtBP-E1A blk
CN1CCN(c2ccc(CNC(=O)C3Cc4c(-c5cccc(F)c5)ccnc4O3)cc2)CC1 (stereo unspecified)
  0.5%	-11
Cn1c(=O)c2cc(NC(=S)NC3CC3)ccc2n1Cc1cccc(C(F)(F)F)c1
  4.8%	-15
Cc1ccc(-c2nc3c(C)cc(Br)cn3c2Cc2ccccc2)cc1
  -4.8%	-3
CCOC(=O)[C@]12CCCC=C1N(CCC1=CCCCC1)C(=O)[C@H](CC(=O)NCCCOC)C2
  1.1%	-1
CC1(C(=O)NCc2cccc(Cl)c2)Cc2c(-c3ccc(C(N)=O)cc3)ccnc2O1 (stereo unspecified)
  ?	0
CN1C(=O)[C@@](O)(c2cn(C)c3ccccc23)c2cc(Br)ccc21
  0.5%	-18
CNc1ncnc2c1ncn2[C@H]1CN(Cc2ccc(-c3ccccc3)cc2)C[C@@H](CO)O1
  1.3%	-2
COC(=O)[C@]12CCCCC=C1N(Cc1cccc3ccccc13)C(=O)[C@H](CC(=O)NCc1cccs1)C2
  -2.8%	-9
COC(=O)[C@]12CCCCC=C1N(Cc1ccco1)C(=O)[C@H](CC(=O)NCCCN1CCCC1=O)C2
  -4.3%	3
O=C(NCc1ccc(Cl)c(Cl)c1)c1cc(C2CCCCN2C(=O)CCc2ccccc2)on1 (stereo unspecified)
  -0.1%	1
OCCCNc1ncnc2c1ncn2[C@H]1CN(Cc2ccco2)C[C@@H](CO)O1
  -3.0%	4
O=C(NC(c1ccc(Cl)cc1)c1cnccn1)C1CCN(Cc2ccc(Oc3ccccc3)cc2)CC1 (stereo unspecified)
  -6.2%	-22
CCOC(=O)C1=CCC2C(=O)N(Cc3ccccc3)C(=O)C12 (stereo unspecified)
  1.3%	4
CC(C)(C)N1C(=O)c2ccccc2NC(=O)C1C(=O)NCCc1ccccc1F (stereo unspecified)
  -5.7%	-4
CC1(Cc2cccc(F)c2)C(=O)Nc2ccc(OC(F)(F)F)cc21 (stereo unspecified)
  -2.8%	1
CCOC(=O)[C@]12CCCC=C1N(CCC1=CCCCC1)C(=O)[C@H](CC(=O)N1CCOCC1)C2
  -2.9%	-18
CC1=C(C(=O)N(C(C)C)C(C)C)CC(CC(=O)NCc2cccs2)C(=O)N1CCCN1CCCC1=O (stereo unspecified)
  -3.2%	2
O=C(Nc1ccc2c(c1)OCCO2)C(c1ccccc1F)n1c(=O)c(-c2ccco2)nc2ccccc21 (stereo unspecified)
  -17%	10
CCOC(=O)C1(C)CCCN(C(=O)c2ccc(-c3ccccc3)cc2)C1 (stereo unspecified)
  0.7%	18
CCc1nc2c(OCc3ccc(OC(F)F)cc3)cccn2c1N(C)C(=O)c1ccc(OC)cc1
  1.1%	-20
CCCCCCCCC(c1nc2cc(C)c(C)cc2[nH]1)n1c(=O)c(-c2ccccc2Br)nc2ccccc21 (stereo unspecified)
  -18%	0
COc1cccc(C(NC(C)=O)c2nc(-c3cccc(C(C)C)c3)cs2)c1 (stereo unspecified)
  -1.1%	-5
CC(C)CCNC(=O)c1[nH]c(C(F)(F)F)nc1-c1ccccc1
  -1.4%	-13
CCc1nc2c(OCc3c(C)noc3C)cccn2c1N(C)C(=O)c1ccccc1F
  -1.7%	4
CC(C)C(C(=O)NC1CCCC1)N1CCN(c2ncccc2C#N)CC1 (stereo unspecified)
  -12%	-13
O=C(NCc1ccccc1)C(c1ccc(F)cc1)N1CCN(c2ccccc2F)CC1 (stereo unspecified)
  -3.0%	-2
COc1cc(-c2cc(NC=O)c3ncc(-c4cccc(C(F)(F)F)c4)n3c2)cc(OC)c1OC
  ?	5
CC1(c2nc3ccccc3[nH]2)CCC(=O)N1C1CC1 (stereo unspecified)
  3.2%	1
CC(C)(C)NC(=O)C(c1cccc2ccccc12)n1c(=O)c(-c2cc3ccccc3[nH]2)nc2ccccc21 (stereo unspecified)
  1.9%	20
NC(Cc1ccc(Cl)cc1)c1csc(NC(=O)Nc2ccccc2)n1 (stereo unspecified)
  -0.4%	-10
CN(C)C1CN(Cc2cn(Cc3ccc(Cl)cc3)nn2)S(=O)(=O)C1 (stereo unspecified)
  -1.9%	4
CCOC(=O)[C@]12CCC=C1N(CCC1=CCCCC1)C(=O)[C@H](CC(=O)N1CCN(C(=O)c3ccco3)CC1)C2
  4.2%	-8
Cc1cc(Br)cn2c(Cc3ccccc3C(F)(F)F)c(-c3ccc(Cl)cc3)nc12
  -2.9%	0
Cc1ccc(S(=O)(=O)N2[C@@H](c3cccc(Cl)c3)C(C(=O)OC(C)(C)C)=CC[C@H]2c2cccc(Cl)c2)cc1
  0.5%	0
O=C(N1CCOCC1)C12OC3CC(CC(C3)O1)O2
  1.5%	8
CCOC(=O)[C@]12CCCC=C1N(Cc1ccccc1)C(=O)[C@H](CC(=O)N1CCN(C(=O)c3ccco3)CC1)C2
  0.0%	-6
COc1ccc(Cc2c(-c3ccc(C)cc3)nc3ccc(Cl)cn23)c(C)c1
  ?	3
Cc1cnc(NC(=O)C2(C)CCN2C(=O)C(C)C)s1 (stereo unspecified)
  -0.2%	5
COC(=O)Cc1ccc(OC2(C)CCN(Cc3csc4ccccc34)C2)cc1 (stereo unspecified)
  -1.7%	1
COc1ccccc1CNC(=O)C1(C)CCN1Cc1ccc2ccccc2c1 (stereo unspecified)
  -2.2%	-4
O=C(Nc1ccccc1)c1cc(C2CCCCN2S(=O)(=O)Cc2cccc(C(F)(F)F)c2)on1 (stereo unspecified)
  1.7%	1
COc1ccc(S(=O)(=O)NC(=O)C2(C)CCN2C(=O)COc2ccc(Cl)cc2)cc1OC (stereo unspecified)
  0.8%	9
COc1cc(CNC(=O)Nc2nc(C(N)c3ccccc3)cs2)cc(OC)c1OC (stereo unspecified)
  -2.2%	-25
O=C1c2ccccc2[C@@H]2Cc3csc[n+]3[C@H]12
  -2.9%	1
OC[C@H]1O[C@@H](c2nc(-c3ccccc3Br)no2)[C@H](O)[C@@H]1O
  0.9%	0
CSc1ccc(CN2CCC(C)(Oc3cccc(F)c3)C2)cc1 (stereo unspecified)
  -2.1%	1
O=C(CC[C@H]1O[C@@H](n2ccc(=O)[nH]c2=O)[C@H](O)[C@@H]1O)N[C@H](Cc1ccccc1)C(=O)NCC1CCCCC1
  1.9%	1
CCCCC[C@H](C)N1C[C@@H](COCc2ccccc2)Oc2cc(N3CC[C@@H](N(C)C)C3)ccc2S1(=O)=O
  -20%	-28
CCOC(=O)[C@]12CCCC=C1N(Cc1cccc3ccccc13)C(=O)[C@H](CC(=O)N1CCOCC1)C2
  -0.4%	-11
COC(=O)[C@@]12C[C@@H](CC(=O)N3CCCC3)C(=O)N(Cc3ccc4c(c3)OCO4)C1=CCC(C)(C)C2
  1.2%	-10

(continued)
The line under a structure holds: ClpP mod	CtBP-E1A blk
CC1(C(=O)NCc2cccc3ccccc23)CCN1Cc1ccccc1OC(F)F (stereo unspecified)
  -15%	2
C(=C\c1ccccc1)/CN1CCN(C(CCc2ccccc2)c2nnnn2-c2ccc3c(c2)OCCO3)CC1 (stereo unspecified)
  -1.3%	-28
COc1cc(NC(=O)C2(C)CCCN2C(=O)C(C)C)cc(OC)c1OC (stereo unspecified)
  0.7%	1
Cc1cc(F)ccc1-c1cc(C(=O)NCc2ccccc2)[nH]n1
  -0.5%	-2
CCCCNC(=O)C(NC(=O)c1cccc(C(F)(F)F)c1)C(=O)c1ccccc1 (stereo unspecified)
  0.8%	9
CCOC(=O)[C@]12CCCC=C1N(Cc1ccccc1)C(=O)[C@H](CC(=O)N1CCCC1)C2
  -2.6%	0
Fc1ccc(-c2nc3c4ccccc4ccn3c2CC2CCCCC2)cc1
  ?	2
CCCCN(C=O)c1c(CC)nc2c(OCC3CCCCC3)cccn12
  -2.4%	17
Cc1ccccc1S(=O)(=O)N(C)C[C@H]1OCc2cn(nn2)CCCC(=O)N([C@H](C)CO)C[C@@H]1C
  -4.5%	-11
COc1ccc(Nc2nc3cc(-c4sccc4C)sc3c(=O)n2C)cc1OC
  -8.0%	-10
FC(F)(F)c1ccc(-c2nc3ccccc3s2)cc1
  ?	13
CCOC(=O)[C@]12CCC=C1N(Cc1ccco1)C(=O)[C@H](CC(=O)NCc1cccc(C(F)(F)F)c1)C2
  -7.0%	-18
O=C1NC[C@@H](CCCCN2C[C@H](Cc3ccc(O)cc3)N(CCc3ccc(O)cc3)C(=O)C2=O)N(CCc2ccc(O)cc2)C1=O
  0.9%	1
CC(CN1CCCCC1)NC(=O)c1scnc1-c1ccccc1 (stereo unspecified)
  0.3%	8
c1ccc2c(-c3cnc4cccnn34)cncc2c1
  4.5%	3
CCc1nc2ccc(C(=O)NCCN3CCNC3=O)cn2c1N(CC)Cc1cccc(Br)c1
  -0.4%	-4
CCc1nc2c(OCc3cc(Cl)cc(Cl)c3)cccn2c1N(C)C(=O)c1ccc(C)cc1
  -7.5%	-3
CNc1ncnc2c1ncn2[C@H]1CN(CCN2CCOCC2)C[C@@H](CO)O1
  -1.4%	10
CSc1ccc(CN2C(=O)C(C)Sc3ccc(C(C)=O)cc32)cc1 (stereo unspecified)
  -2.8%	-8
CSc1ccc(OC2(C)CCN(Cc3ccc(OC(C)C)cc3)C2)cc1 (stereo unspecified)
  0.2%	-15
O=C(O)CN=C(Nc1cc(Cl)cc(Cl)c1)NC(c1ccccc1)c1ccccc1
  -2.3%	2
CCCNC(=O)C1(C)CCCN(CC(=O)c2ccc3c(c2)OCCO3)C1 (stereo unspecified)
  -1.3%	-1
Cc1cc2nc(-c3ccco3)c(Cc3cccc(Cl)c3)n2c(C)c1Br
  1.4%	-4
CC(C(=O)NC(C)(C)C)n1c(C(c2ccccc2)c2ccccc2)nc2ccccc21 (stereo unspecified)
  -2.0%	24
OC[C@@H]1CN(Cc2ccccc2)C[C@H](n2cnc3c(N4CCN(c5ccccc5)CC4)ncnc32)O1
  -6.2%	?
CC1(C(=O)NS(=O)(=O)c2ccc(C#N)cc2)CCN1C(=O)CCC1CCCC1 (stereo unspecified)
  -0.4%	2
CCOC1=C2[C@@H](CN(S(=O)(=O)c3ccc(C)cc3)[C@H]2c2ccccc2F)[C@H]2C(=O)N(CC)C(=O)[C@H]2C1
  0.2%	-7
CC(C(=O)NC(C)(C)C)n1c(-c2ccccc2)nc2ccccc21 (stereo unspecified)
  -22%	-15
C[C@@H](c1ccccc1)N1C[C@H](COCc2ccccc2)Oc2cc(N3CC[C@H](N(C)C)C3)ccc2S1(=O)=O
  -9.3%	?
COc1cccc(C(O)c2ncc(-c3ccc(C(F)(F)F)cc3)[nH]2)c1 (stereo unspecified)
  -20%	-4

Some of these compounds in order of length of the SMILES, ascending:
The line under a structure holds: ClpP mod	CtBP-E1A blk
CC(C(=O)NC(C)(C)C)n1c(-c2ccccc2)nc2ccccc21 (stereo unspecified)
  -22%	-15
CCCNC(=O)C1(C)CCCN(CC(=O)c2ccc3c(c2)OCCO3)C1 (stereo unspecified)
  -1.3%	-1
O=C(O)CN=C(Nc1cc(Cl)cc(Cl)c1)NC(c1ccccc1)c1ccccc1
  -2.3%	2
CC1(C(=O)NS(=O)(=O)c2ccc(C#N)cc2)CCN1C(=O)CCC1CCCC1 (stereo unspecified)
  -0.4%	2
CC(C(=O)NC(C)(C)C)n1c(C(c2ccccc2)c2ccccc2)nc2ccccc21 (stereo unspecified)
  -2.0%	24
C[C@@H](c1ccccc1)N1C[C@H](COCc2ccccc2)Oc2cc(N3CC[C@H](N(C)C)C3)ccc2S1(=O)=O
  -9.3%	?
CCOC1=C2[C@@H](CN(S(=O)(=O)c3ccc(C)cc3)[C@H]2c2ccccc2F)[C@H]2C(=O)N(CC)C(=O)[C@H]2C1
  0.2%	-7

More results:
The line under a structure holds: ClpP mod	CtBP-E1A blk
Cc1ccc(F)cc1C(=O)N1CCCC(c2cc(C(=O)NCc3ccc(F)cc3)no2)C1 (stereo unspecified)
  -5.2%	4
COc1ccc(C2OC(CCc3ccccc3)CC3=C2C(=O)OC(C)(C)O3)cc1 (stereo unspecified)
  -3.6%	0
Nc1nc2c(ncn2[C@@H]2O[C@H](CNC(=O)[C@H](N)C3CCCCC3)[C@@H](O)[C@H]2O)c(=O)[nH]1
  -1.2%	-1
CCCCn1nnnc1C(c1cc2ccccc2o1)N1CCCN(C(=O)OC(C)(C)C)CC1 (stereo unspecified)
  -2.2%	-1
COc1cncc(-c2cnc3sc(NCCc4ccccn4)nn23)c1
  -1.3%	-68*
Cc1ccc(S(=O)(=O)N2C[C@H]3C(=O)C[C@@H](c4ccccc4C)N(S(=O)(=O)c4ccc(C)cc4)[C@H]3C[C@H]2c2ccccc2)cc1
  -2.0%	1
Clc1ccc(-c2cc3nc(NCc4cccc(Cl)c4)ccn3n2)cc1
  5.1%	5
CC(=O)NC(c1cccc(F)c1)c1nc(-c2ccoc2)cs1 (stereo unspecified)
  0.1%	1

Not all compounds are listed, so the mix of outcomes need not match the whole.
